# High-throughput results: PubChem, ICCB-Longwood Screening Facility, Harvard Medical School
# HCMV UL50-53 inh = cytomegalovirus nuclear egress complex inhibition | HTRF UL50-UL53 interaction, normalized percent inhibition | inhibition, % (test concentration not listed) | actives 0.15% (n = 190,000);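 active means both replicates at 50% or more, plus weaker picks with an unusually low signal ratio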;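 further: stock transfer was 100 nL into about 20 µL; 0% = negative control wells and 100% = wells with untagged competitor protein; inactives centre near -12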
# GIV-Gai inh = GIV-Galpha-i interaction inhibition; percent of control (FP), % (concentration not given with the values); AID 1224905; Galpha-i3/FITC-GIV peptide fluorescence polarization, 90 min; active compounds read low; scaled: aluminum fluoride 0%, vehicle 100%; P08753; actives 0.42% (n = 210,000);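 active means replicate mean at 85% of control or lower, very high polarization wells dropped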;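 further: wells of about 15 µL received 100 nL stock; the first replicate is given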
# Target sequence (P08753 whole entry, looked up): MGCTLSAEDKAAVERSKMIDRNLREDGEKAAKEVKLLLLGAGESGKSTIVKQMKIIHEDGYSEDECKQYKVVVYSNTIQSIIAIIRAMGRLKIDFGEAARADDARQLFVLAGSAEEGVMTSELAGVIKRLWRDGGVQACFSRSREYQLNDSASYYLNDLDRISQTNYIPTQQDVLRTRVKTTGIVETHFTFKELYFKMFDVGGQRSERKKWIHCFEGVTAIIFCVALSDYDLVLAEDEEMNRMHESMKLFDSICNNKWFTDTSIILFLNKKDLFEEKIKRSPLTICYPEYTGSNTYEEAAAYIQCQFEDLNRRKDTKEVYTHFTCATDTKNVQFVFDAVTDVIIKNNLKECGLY
# Sa growth inh = inhibitors of Staphylococcus aureus growth at 42 °C. actives 0.53% (n = 170,000). relative growth, % (concentration not given with the values). S. aureus RN4220 growth, OD600, 20 h; active compounds read low;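 active means growth at 42 °C up to 50% and 20 or more points under that at 30 °C, or under 10% at both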;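 further: 300 nL library stock went into each well; scaled to the means of positive and negative controls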
# Sa growth inh second temp = further read-out of Sa growth inh, marked with its call; relative growth, %; measured here: growth at 30 °C;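 optical density after 20 h as mean of two plates; 100% = untreated growth and lower means inhibition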
# * hit, by the source's call; . = not tested or not shown.
# Sample of the layout, 3 compounds:
# Results follow in this order: HCMV UL50-53 inh	GIV-Gai inh	Sa growth inh	Sa growth inh second temp
- O=C(NC1CC1)C(F)(F)C1(F)OC(F)(F)C(F)(F)C1(F)F (stereo unspecified)
→ 12	102	91	89
- CCc1nc(Oc2cccc(F)c2)c2oc3ccccc3c2n1
→ .	104	92	66
- O=C1C(C=NCCN2CCOCC2)=C(O)c2ccccc21
→ .	105	84	85

# Main list, previewed entries included:
# Results follow in this order: HCMV UL50-53 inh	GIV-Gai inh	Sa growth inh	Sa growth inh second temp
- O=C(NC1CC1)C(F)(F)C1(F)OC(F)(F)C(F)(F)C1(F)F (stereo unspecified)
→ 12	102	91	89
- CCc1nc(Oc2cccc(F)c2)c2oc3ccccc3c2n1
→ .	104	92	66
- O=C1C(C=NCCN2CCOCC2)=C(O)c2ccccc21
→ .	105	84	85
- CC1CCCCC1NC(=O)c1ccc2c(=O)n(Cc3ccc4c(c3)OCO4)c(=O)[nH]c2c1 (stereo unspecified)
→ .	104	124	91
- CC(CCc1ccccc1)NC(=O)Cn1ncc2c3ccccc3n(Cc3ccccc3)c2c1=O (stereo unspecified)
→ -13	100	106	88
- COc1ccc(-c2c(C)nn3c(N4CCC(C(=O)NCC(OC)OC)CC4)cc(C)nc23)cc1OC
→ -20	101	105	87
- Cc1ccc2occ(CC(=O)Nc3cccc(C(F)(F)F)c3)c2c1
→ -1	100	93	92
- CN(C(=O)c1cc2cccnc2n(C)c1=O)c1ccccc1
→ -28	105	98	89
- CCCNC(=O)C(CC)n1nc(CC)n2c(cc3oc(C)cc32)c1=O (stereo unspecified)
→ -9	105	91	95
- CC1(C(=O)NC2CCCC2)CCC(=O)N1CCc1ccc(Cl)cc1 (stereo unspecified)
→ -3	103	94	92
- COc1ccccc1CNC(=O)[C@H](C)N1C(=O)C2CC=CCC2C1=O (stereo partly specified)
→ -12	.	104	97
- O=C(/C=C\c1ccc2c(c1)OCO2)NC1(C(=O)Nc2ccc3c(c2)OCO3)CCCCC1
→ .	103	94	94
- Cc1cc(C(=O)NCCCn2ccnc2)no1
→ -14	104	.	.
- CCOC(=O)Cn1nc(C)c2ccccc2c1=O
→ -18	104	.	.
- Cc1nc(-c2cc(S(=O)(=O)N3CCOCC3)c(C)s2)no1
→ -9	108	.	.
- CCOc1ccc(-c2cc(C(=O)NCc3ccc(OCC)c(OC)c3)[nH]n2)cc1
→ .	103	93	95
- CN(C)N1C(=O)c2cccc3cccc(c23)C1=O
→ -95	101	104	86
- O=c1sc2ccccc2n1Cc1nnc(SCc2ccccn2)n1-c1cccc(Cl)c1
→ .	96	94	94
- CCCc1nnc(SCC(=O)N(CC)CC)n1C
→ -12	99	107	95
- Cc1cccc(C(=O)N2CCC(c3nc4ccccc4o3)CC2)c1
→ -3	108	.	.
- Cn1cccc1C(=O)NC(=O)CSc1nnc(-c2cccnc2)o1
→ -9	.	95	86
- O=C(NCCS(=O)(=O)N1CCc2ccccc2C1)c1ccc(S(=O)(=O)N2CCCCC2)cc1
→ 8	106	.	.
- CC1CCN(C(=O)c2cc(-c3ccc(Br)cc3)on2)CC1
→ 6	102	98	94
- Cc1ccc2scc(N3CCCC3)c(=O)c2c1
→ -71	111	.	.
- CCC1CCc2nc3sc(C(=O)Nc4ccc(F)cc4F)c(N)c3cc2C1 (stereo unspecified)
→ -31	105	102	89
- CCc1nc2nc3ccccc3nc2n1-c1ccc(N2CCOCC2)cc1
→ -98	.	99	89
- Cc1cccc(-n2ncc(C(=O)N3CCCC3)c2C2CCNCC2)c1
→ -29	104	92	84
- CSc1cccc(CNc2ccc(Cl)nn2)c1
→ -34	104	.	.
- Cc1cc(C)nc(SCCn2c(N3CCC(C)CC3)nc3c2c(=O)[nH]c(=O)n3C)n1
→ -10	101	.	.
- Nc1cc(S(=O)(=O)C(F)(F)F)ccc1Cl
→ -14	.	74	89
- Cc1ccc(NC(=O)CCn2ccnc2C)cc1Cl
→ .	101	84	85
- COc1cc(OC)cc(-c2nc3nc(C)c(CCC(=O)NCCC(C)C)c(C)n3n2)c1
→ -22	100	106	92
- CCOC(=O)c1sc2nc(CC(=O)OC)nc(NCCN3CCOCC3)c2c1C
→ -29	108	.	.
- CC1(C)CC(NC(=O)c2ccn[nH]2)CC(C)(C)N1
→ 5	.	125	97
- COc1ccc(NC(=O)CCSc2nc(-c3ccco3)cc(C(F)(F)F)n2)cc1OC
→ -30	107	88	90
- CCCCCn1c(=O)c2c(nc3n2CCCCN3c2ccc(OCC)cc2)n(C)c1=O
→ 8	103	.	.
- Cc1nc(N2CCN(Cc3ccc4c(c3)OCO4)CC2)[nH]c(=O)c1C
→ 9	103	.	.
- O=S(=O)(NCCN1CCOCC1)c1ccc(I)cc1
→ -25	102	84	83
- N#CCc1ccc(C(F)(F)F)cc1
→ 4	.	90	96
- Cc1cc(C)c2c(-n3cccc3)nn(CC(=O)NCc3ccccc3Cl)c2n1
→ -30	105	.	.
- N#CC1=C(N)Oc2c(sc3ccccc23)C1c1ccccc1OC(=O)c1ccccc1Cl (stereo unspecified)
→ .	113	98	68
- O=c1oc2c(CN3CCCC3)c(O)ccc2c2c1CCC2
→ -46	99	.	.
- Cn1c(=O)[nH]c(=O)c2ccc(-c3ccccc3)nc21
→ -3	.	83	96
- O=C(COc1ccc(-c2nc(-c3ccccc3)no2)cc1)NC1CCCC1
→ -32	108	.	.
- COc1cc(C2N(C(C)=O)CCN2S(=O)(=O)c2ccc(C)cc2)ccc1O (stereo unspecified)
→ 2	107	98	87
- N#CC1=Cc2ccccc2OC1
→ -64	.	116	88
- Cc1cc(=O)c2cc(C(=O)Nc3cccc(C)c3C)ccc2[nH]1
→ -12	97	92	88
- Cc1cc(C(=O)CSc2nnc(C(F)(F)F)n2N)c(C)n1CC1CCCO1 (stereo unspecified)
→ -1	.	101	99
- CS(=O)(=O)Nc1ccc(N2CCN(Cc3ccc4c(c3)OCO4)CC2)c(C(=O)O)c1
→ -36	104	.	.
- Cc1cc2nnc(SCC(=O)Nc3sc4c(c3C#N)CCC(C)C4)n2c2ccccc12 (stereo unspecified)
→ -15	105	.	.
- O=C(O)c1cscc1S(=O)(=O)c1ccc(Cl)cc1
→ -17	97	111	93
- CCCn1c(SC/C(O)=C(\C#N)c2nc3ccccc3[nH]2)n[nH]c1=O
→ -2	.	83	93
- O=C1CC(NS(=O)(=O)c2ccccc2)CN1c1ccc2c(c1)OCCO2 (stereo unspecified)
→ -24	101	105	79
- CCOC(=O)CC(N)c1ccc2c(c1)OCO2 (stereo unspecified)
→ -37	97	116	95
- COC(=O)c1ccc(Cn2cc(C(F)(F)F)cc(Cl)c2=O)o1
→ 15	.	108	104
- Oc1ccc(F)cc1-c1ccnc2cc(-c3ccc(Cl)cc3)nn12
→ 6	105	.	.
- O=C(CSc1ncn[nH]1)Nc1ccc(F)cc1
→ -5	100	106	75
- CC(C)(C)c1ccc(C(=O)NC2CCNCC2)cc1
→ -5	97	73	97
- CN1CCN(CCNC(=O)c2cc3n(n2)CCCN(Cc2cccc(F)c2)C3=O)CC1
→ -11	98	.	.
- COc1ccc(C2c3c(oc4ccc(Cl)cc4c3=O)C(=O)N2CCCN(C)C)cc1OC (stereo unspecified)
→ .	97	117	90

# One compound at a time, as listed above.
# O=C1CC(NS(=O)(=O)c2ccccc2)CN1c1ccc2c(c1)OCCO2 (stereo unspecified) as listed: HCMV UL50-53 inh = -24; GIV-Gai inh = 101; Sa growth inh = 105; Sa growth inh second temp = 79
# N#CC1=C(N)Oc2c(sc3ccccc23)C1c1ccccc1OC(=O)c1ccccc1Cl (stereo unspecified) as listed: HCMV UL50-53 inh = .; GIV-Gai inh = 113; Sa growth inh = 98; Sa growth inh second temp = 68
# CN1CCN(CCNC(=O)c2cc3n(n2)CCCN(Cc2cccc(F)c2)C3=O)CC1 as listed: HCMV UL50-53 inh = -11; GIV-Gai inh = 98; Sa growth inh = .; Sa growth inh second temp = .

# Continuation.
# Results follow in this order: HCMV UL50-53 inh	GIV-Gai inh	Sa growth inh	Sa growth inh second temp
- OCC(O)Cn1c2ccc(Br)cc2c2cc(Br)ccc21 (stereo unspecified)
→ -28	99	119	55
- O=C(Nc1ccc2oc(=O)ccc2c1)c1cc2ccccc2o1
→ -13	.	104	88
- COc1cccc(C(=O)n2nc(-c3cccnc3)nc2NCc2ccco2)c1
→ -17	100	90	68
- CN1/C(=C/C(=O)c2ccco2)Sc2ccccc21
→ -20	.	118	84
- Cc1ccc(CCNC(=O)C2CC(=O)N(C3CCCC3)C2)cc1 (stereo unspecified)
→ -21	100	100	84
- C=CCNc1nc(-c2ccc(OC)cc2)cs1
→ -12	.	92	87
- C=C(C)C(=O)Oc1ccc2c(c1)C(C)=CC(C)(C)N2
→ -27	105	80	72
- COc1cccc(CNC(=O)c2ccc3nc(-c4ccc(F)cc4)c(-c4ccc(F)cc4)nc3c2)c1
→ .	108	129	96
- COc1ccc(C(=O)NNc2nnc(C(C)(C)C)c(=O)n2N)cc1
→ -8	.	85	88
- COCCNC(=O)CN1C(=O)c2cccnc2Sc2ccccc21
→ .	107	81	96
- Cc1ccc(-c2nc3sccn3c2Nc2ccc(C)c(C)c2)cc1
→ 0	104	113	91
- CC(=O)N1c2ccccc2CC1C(=O)N1CCN(c2cccc(C)c2C)CC1 (stereo unspecified)
→ .	106	104	79
- COc1cccc(C(=O)NCCc2csc3nc(-c4ccccc4F)nn23)c1OC
→ .	101	106	86
- CCOc1nc(Nc2ccccc2)nc(Nc2ccccc2)n1
→ -6	106	96	74
- Cc1cc(C)n(C(=O)N2CCOCC2)n1
→ -22	98	94	91
- CC1=CC(C)(C)Nc2ccc(OC(=O)c3ccc(Cl)cc3)cc21
→ -4	.	88	78
- Cc1cccc2nc(-c3cc4ccccc4s3)oc(=O)c12
→ 16	108	119	97
- CCc1ccc(S(=O)(=O)Nc2ccc(-c3nc4cccnc4s3)cc2)s1
→ -31	109	79	52
- COc1cccc(-c2nc(SCC(=O)Nc3ccc4c(c3)OCCO4)c(-c3ccccc3)[nH]2)c1
→ -4	107	116	75
- COc1ccccc1OCCCCn1c(C2CC(=O)N(c3ccccc3Cl)C2)nc2ccccc21 (stereo unspecified)
→ -19	111	102	67

# Copied from the list.
# Sa growth inh second temp result of COc1cccc(C(=O)n2nc(-c3cccnc3)nc2NCc2ccco2)c1 : 68
# Sa growth inh result of CC(=O)N1c2ccccc2CC1C(=O)N1CCN(c2cccc(C)c2C)CC1 (stereo unspecified) : 104
